# VDR inhibitor: blocks the human vitamin D receptor; VDR-SRC2-3 peptide fluorescence polarization, 2 h; P11473; Potency, µM, for inactives: max response, negative = inhibition, hits mostly inhibitors; actives 0.93% (n = 400,000); active = well fitted inhibition curve with a large enough effect; inconclusive = small, poorly fitted or top-dose-only effect, or another doubt; inactive = no such curve, though single readings can be large or run the other way; also: series mostly up to about 120 µM
# Target sequence (P11473 whole entry, looked up): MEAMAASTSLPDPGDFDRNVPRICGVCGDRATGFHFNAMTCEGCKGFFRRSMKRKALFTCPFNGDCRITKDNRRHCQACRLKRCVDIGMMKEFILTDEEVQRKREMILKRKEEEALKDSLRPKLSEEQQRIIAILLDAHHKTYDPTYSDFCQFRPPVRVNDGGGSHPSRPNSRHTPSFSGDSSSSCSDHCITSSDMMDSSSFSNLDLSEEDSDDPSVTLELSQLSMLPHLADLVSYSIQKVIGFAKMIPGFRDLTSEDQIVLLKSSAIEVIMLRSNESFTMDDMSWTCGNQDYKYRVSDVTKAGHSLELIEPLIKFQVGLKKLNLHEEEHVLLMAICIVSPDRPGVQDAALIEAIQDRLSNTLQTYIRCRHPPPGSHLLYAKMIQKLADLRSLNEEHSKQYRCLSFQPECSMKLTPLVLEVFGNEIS
#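 Measured by FP: displacement of SRC2-3 coactivator peptide from VDR by library compounds, following a two-hour ambient incubation.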
# Active calls of the source: *; ? = inconclusive; & = joins results of further samples; [ ] = remark or other dose. % is scaled to controls: 0 for no effect and ±100 for the full control effect; potency is read from the fitted curve at half-maximal effect. This is a subset; count on the stated rates, not on these rows.
# Start of the data: the first two compounds, ahead of the listing:
SMILES,VDR inhibitor
Cn1c(CCNC(=O)c2ccc(Cl)cc2)n[nH]c1=S,-3.0%
CN1CCCC(CC2Oc3ccccc3Sc3ccccc32)C1 (stereo unspecified),-16.4%

# This part in full, from the start:
SMILES,VDR inhibitor
Cn1c(CCNC(=O)c2ccc(Cl)cc2)n[nH]c1=S,-3.0%
CN1CCCC(CC2Oc3ccccc3Sc3ccccc32)C1 (stereo unspecified),-16.4%
COc1cccc(/C=N/NC(=O)C(C)Cn2cnc3ccccc32)c1 (stereo unspecified),2.0%
O=C(N=C1SC2CS(=O)(=O)CC2N1CCc1ccc(F)cc1)C1CCCCC1 (stereo unspecified),10.6%
CS(=O)(=O)c1ccc(S(=O)CC(=O)OCc2ccccc2)c([N+](=O)[O-])c1 (stereo unspecified),17.8µM*
Cc1ccc(S(=O)(=O)N2CCOCC2)cc1C(=O)Nc1cccc(C(=O)NC2CC2)c1,-5.2%
CCOC(=O)C1CCN(C(=O)c2nn(-c3ccc(C)cc3)c(=O)c3c2c2ccccc2n3C)CC1,-27.9%
C=C(C)CN(CC)C(=O)CSc1ccc(S(=O)(=O)N2CCN(C)CC2)cn1,-12.4%
COc1ccc(C(=O)N/N=C/c2ccc(OC)c(COc3ccccc3)c2)cc1,-3.4%
Cc1ccc(OCC(=O)Nc2ccc3c(c2)C(=O)NC3=O)c(C)c1,13.4%
CCSc1nc2c([nH]c3ccccc32)c(=O)n1-c1cccc(OC)c1,-4.3%
Cc1nc2cnc(Oc3cccc(Cl)c3)nc2n(Cc2ccc(F)cc2)c1=O,?
O=C(NCC(c1ccco1)N1CCCC1)c1cn(Cc2ccccc2)nc1-c1ccccc1 (stereo unspecified),3.1%
COc1ncc2nc(-c3ccccc3)c(=O)n(C[C@H]3CCCO3)c2n1,2.9%
COc1ccccc1CNC(=O)C(C)n1c(=O)cc(-c2ccccc2)c2c(C)nn(C)c21 (stereo unspecified),-2.3%
O=C1NC(=O)/C(=C\c2ccccc2OCc2ccc([N+](=O)[O-])cc2)N1,-20.6%
CCOC(=O)c1c(NC(=O)C(F)(OC)C(F)(F)F)sc(C(=O)N2CCCCC2)c1C (stereo unspecified),-4.1%
CCCNC(=O)c1ccc2c(c1)N=C(C)c1c(C)ccc(C)c1S2,7.3%
Cc1ccc(S(=O)(=O)NCC(=O)N(CC(=O)NCc2ccco2)Cc2ccc3c(c2)OCO3)cc1,0.7%
C=CCN1C=CC(=O)[C@@H](OC(=O)Nc2ccc(Br)cc2)[C@H]1c1ccccc1Br,-15.6%
CC(C)CCn1cnc2c(cnn2-c2ccc(Cl)cc2)c1=O,-20.5%
Cc1ccccc1C(=O)NCCN1CCOCC1,-19.7%
O=C(NCc1cccnc1)c1ccc(-c2ccc(Cl)cc2)o1,-8.9%
COc1ccc(C2C(=O)N(C3CCCCC3)CC(=O)N2Cc2ccc3c(c2)OCO3)cc1 (stereo unspecified),-0.5%
CCCCn1nnnc1SCC(=O)Nc1cccc(C)c1,-0.1%

# Other results.
SMILES,VDR inhibitor
C#CC(C)OC(=O)Nc1cnccc1C(F)(F)F (stereo unspecified),6.4%
Cc1ccc2oc(C(=O)NCc3ncc(C)[nH]3)c(C)c2c1,-11.6%
Cc1ccc(-c2nc3sc(CCNS(=O)(=O)c4cc(F)ccc4F)c(C)n3n2)cc1,-3.5%
Cc1ccsc1/C=N/NC(=O)c1cccc(S(=O)(=O)Nc2ccccc2Cl)c1,2.7%
COc1ccccc1NC(=O)CN1C(=O)CSc2ccc(S(=O)(=O)N3CCCC3)cc21,-0.8%
Cc1ccc(-c2csc(NC(=O)CSc3nc(C)cc(=O)[nH]3)n2)cc1,?
C/C(=C/C(=O)N1CCN(C)CC1)C(=O)O,-2.0%
COCCn1c(=S)[nH]c2cc(C(=O)N3CCC(C(N)=O)(N4CCCCC4)CC3)ccc2c1=O,2.1%
Cc1ccc(NC(=O)C(C)N2C(=O)c3ccccc3C2=O)c(C)c1 (stereo unspecified),11.4%
CCN(CC)S(=O)(=O)c1cccc(NC(=O)CN(C)C2CCCCC2)c1,2.8%
COc1cccc(C(=O)N2CCCc3ccccc32)c1,-21.2%
COc1ccc(C(C)(C)C)cc1NC(=O)c1cc(S(=O)(=O)N(C)C)ccc1N1CCCC1,-0.7%
Cc1ccc(C)c(CSc2nc3c([nH]c4ccccc43)c(=O)n2C)c1,14.1%
Cc1cccc(-n2ncc3c(NC4CCCC4)ncnc32)c1,1.3%
O=C(COC(=O)C(O)c1ccccc1)c1ccc2c(c1)OCCO2 (stereo unspecified),-1.8%
OC(COC(c1ccc(F)cc1)c1ccc(F)cc1)CN1CCc2ccccc2C1 (stereo unspecified),-10.3%
C=C(c1cn(C(C)=O)c2ccccc12)c1cn(C(C)=O)c2ccccc12,2.1%
O=C(CCCC(=O)OCC(=O)c1ccc(Cl)cc1Cl)Nc1cc(C(F)(F)F)ccc1Cl,12.3%
CCOC(=O)C1C(=O)NC(N2CCN(CC)CC2)=NC1c1ccccc1 (stereo unspecified),-4.8%
Cc1ccc(-c2cc(C(F)F)nc(S(C)(=O)=O)n2)cc1,-22.9%
CCCNC(=O)COC(=O)C1CCN(S(=O)(=O)c2ccc3c(c2)OCCO3)CC1,1.0%
CCOc1ccccc1N(C)C(=O)Cn1nc(Cc2cccnc2)c2ccccc2c1=O,-2.8%
CCOc1cc(C(=O)Nc2ccc3c(c2)OCO3)ccc1OC(F)F,-3.0%
Cc1cccc(N2CCN(C(=O)c3cn(C4CCCCC4)c(=O)c4c3c3ccccc3n4C)CC2)c1C,1.6%
Nn1c(-c2ccc(F)cc2)nc2ccccc2c1=O,8.6%

# An excerpt from above in order of molar mass, largest number first:
SMILES,VDR inhibitor
CCOc1cc(C(=O)Nc2ccc3c(c2)OCO3)ccc1OC(F)F,-3.0%
O=C(COC(=O)C(O)c1ccccc1)c1ccc2c(c1)OCCO2 (stereo unspecified),-1.8%
Cc1ccc2oc(C(=O)NCc3ncc(C)[nH]3)c(C)c2c1,-11.6%

# (further entries)
SMILES,VDR inhibitor
Nc1c(C(=O)Nc2ccc3c(c2)OCCO3)nnn1Cc1cccc(Br)c1,-19.8%
Cc1ccc(C(=O)NCC(=O)OCC(=O)Nc2cc(S(=O)(=O)N3CCOCC3)ccc2Cl)s1,-3.1%
CCOc1cc(S(=O)(=O)Nc2ccc(Cl)cn2)ccc1Cl,-4.9%
CCOc1ccc(-n2c(=S)sc3c(=O)[nH]c(SCC(=O)N4CCC(C)CC4)nc32)cc1,29.8%
CCN(CC)c1ccc(NC(=O)c2ccc(=O)[nH]c2)cc1S(=O)(=O)Nc1ccc(OC)cc1,-8.6%
N=C1C(c2ccccc2)=C(O)C2CCc3ccccc3N12 (stereo unspecified),3.6%
O=C(CN1CCN(c2ncccn2)CC1)N(Cc1ccccc1)c1ccc(F)cc1,-1.3%
O=C(CN1CCN(Cc2ccc(F)cc2)CC1)NCc1ccccc1,-3.9%
COc1ccc(-c2c(NC(=O)c3ccco3)oc3ccccc3c2=O)cc1OC,3.7%
Cc1cc(-n2nc(C)cc2C)nc(NS(=O)(=O)c2ccccc2Cl)n1,-2.3%
CCOC(=O)C1CCCN(C(=O)N2CCOCC2)C1 (stereo unspecified),7.3%
Cc1ccc(C(=O)NC(=S)NNS(=O)(=O)c2ccccc2)cc1,6.5%
Cc1ccc(CNC(=O)c2cc(S(=O)(=O)N3CCCCC3)cn2C)cc1,4.9%
O=C(CCN1CCOCC1)NNC(=O)/C(=C/c1ccccc1)NC(=O)c1ccccc1,-12.5%
Cc1ccc(-c2cn(S(=O)(=O)c3ccc(C)cc3)nc2N)cc1,-13.1%
Nc1ncnc2c1nc(Br)n2C1OC2COP(=O)(O)O[C@@H]2C1O (stereo partly specified),5.3%
O=C(NC1CC(=O)N(c2ccccc2)C1)C1CC1 (stereo unspecified),0.9%
Cc1c(NC(=O)COC(=O)/C=C/c2ccc(Cl)cc2)c(=O)n(-c2ccccc2)n1C,-14.8%
O=C(CSCC(=O)Nc1nc(-c2ccc3c(c2)OCO3)cs1)Nc1nccs1,4.7%
CC(C)(C)Nc1nc(NN)nc(NC(C)(C)C)n1,-1.9%
O=C1c2ccccc2C(=O)N1c1cccc2cccnc12,-16.2%
C=C(C)Cn1c(=O)c2c(nc3n2CCN3c2ccc(F)cc2)n(C)c1=O,2.3%
CCNCC(=O)N1c2ccccc2CCc2ccc(NC(=O)OC(C)C)cc21,-1.3%
CCN(CC)CCN(C(=O)/C=C/c1cccs1)c1nc2ccc(F)cc2s1,-11.4%
O=C(NCc1cccnc1)c1ccc(NC(=O)c2ccc([N+](=O)[O-])cc2)cc1,-18.4%

# Further results follow.
SMILES,VDR inhibitor
CCCCc1ccc(NC(=O)CC(C)=O)cc1,-10.1%
COC(=O)CN(C)C(=O)CC1C(=O)NCCN1CC(C)(C)C (stereo unspecified),1.4%
O=C(CSc1nnc(CNC(=O)c2cccs2)o1)NCC1CCCO1 (stereo unspecified),-1.8%
CCCS(=O)(=O)N1CC(=O)N(c2ccc(Cl)cc2C)C(C)(C(=O)NC2CCCC2)C1 (stereo unspecified),-1.1%
CCCOc1cccc(C(=O)N2CCCCC2CCN2CCCCC2)c1 (stereo unspecified),7.3%
Cc1csc(Nc2ccc(C(=O)O)cc2)n1,2.6%
CC(=O)N1C(=O)C2(C(C#N)=C(N)Oc3c2c(C)nn3-c2ccccc2)c2ccccc21 (stereo unspecified),1.0%
Cc1cccc(C(C)C)c1NC(=O)C(C)OC(=O)Cn1cnc2c1c(=O)n(C)c(=O)n2C (stereo unspecified),5.7%
CCOc1ccc(C(=O)Nc2ccc(N3CCN(C)CC3)cc2)cc1,-3.5%
O=C1NC[C@H](c2ccccc2)OC(=O)[C@H](Cc2ccc(F)cc2)C/C=C\C[C@H]1CC(=O)N(CCO)Cc1ccccc1,13.7%
COc1ccccc1NC(=O)NCCCCc1ccccc1,33.3%[activator]
COc1ccccc1-c1c(C)nn2c(C)c(C(C)=O)cnc12,-9.6%
O=C(c1nc2ccc(Cl)cn2c1CNCCn1ccnc1)N1CCCCCCC1,3.3%
CCc1nnc(NC(=O)c2cccc(S(=O)(=O)N3CCN(c4ccccc4)CC3)c2)s1,-9.5%
O=C(Nc1nccs1)c1ccc(S(=O)(=O)NCC2CCCCC2)cc1,-0.3%
Cc1nnc(SCC(=O)Nc2nonc2C)s1,0.2%
Clc1ccccc1CNc1ncnc2c1nc1n2CCCC1,18.0%
COc1ccc(C(C#N)=C2C=CC(=NO)C=C2)cc1,?
O=C(Nc1ccc(C(=O)N2CCCC2)cc1)c1ccc(F)cc1Cl,-27.1%
Cn1c(=O)c2c(nc(N3CCCC3)n2C)n(C)c1=O,0.2%
Cc1nc2nc(SCC(=O)NCCCN3CCOCC3)nn2c(C)c1Cc1ccccc1,6.9%
Brc1ccc(/C=N/n2cnnc2)s1,12.2%
CCCCN(CCCC)CC1OCc2ccccc2CO1,3.1%
COc1cccc(NC(=O)CSc2nc(=O)n(Cc3ccco3)c3c2CCC3)c1,0.3%
COC(=O)c1ccc2c(=O)[nH]c(COC(=O)CCC(=O)c3ccc(Cl)cc3)nc2c1,4.8%

# Following part
SMILES,VDR inhibitor
NC1(C(=O)O)C[C@H](C(=O)O)[C@H](C(=O)O)C1 (stereo partly specified),1.9%&16.1%&6.1%
CCN(CC(=O)Nc1cc(Cl)ccc1C)C(=O)CCS(=O)(=O)c1ccc(Cl)cc1,?
Cc1nnc(SCC(=O)N2CCN(c3ccccc3)CC2)n1C1CC1,-14.0%
CCN(CC(=O)Nc1cccc(S(=O)(=O)N2CCCC2)c1)CC(=O)Nc1ccccc1OC,-7.9%
Cc1ccc(/C=N/Nc2ccnc3cc(Cl)ccc23)c(C)c1,-12.3%
O=C(Nc1nc(-c2ccccc2)c(C(=O)c2ccccc2)s1)c1ccc(S(=O)(=O)N2CCCCC2)cc1,-1.1%
Cc1ccc(N2CC(C(=O)N3CCC(C(=O)Nc4nnc(C(C)(C)C)s4)CC3)CC2=O)cc1 (stereo unspecified),5.2%
Cc1c(Cl)ccc2sc(N3CCN(C(=O)C4=COCCO4)CC3)nc12,-14.7%
Cn1c(=O)c(-c2ccc(F)cc2)nc2cnc(Nc3ccccc3)nc21,5.3%
CCn1ncc(C2=NOC(C(=O)Nc3ccccc3C(=O)OC)C2)c1C (stereo unspecified),-4.4%
CCN(C(=O)CN1CCN(S(=O)(=O)c2cc(Cl)ccc2Cl)CC1)c1c(N)n(Cc2ccccc2)c(=O)[nH]c1=O,2.4%
COc1ccc2cc(C3OCCO3)c(Cl)nc2c1,-21.2%
COCCCn1c(SCC(=O)NC2CCCCC2)nnc1-c1ccco1,-3.0%
COc1ccc(Nc2nc(-c3cccs3)cs2)c(OC)c1,2.4%
CCCc1ccc(C(C)NC(=S)NCc2ccc(F)cc2)cc1 (stereo unspecified),-8.7%
CC(C)(C)NC(=O)CN(CC1CCCO1)C(=O)CNS(=O)(=O)c1ccc(F)cc1 (stereo unspecified),6.6%
CC(=O)Nc1ccc(S(=O)(=O)NCC2CCC(C(=O)NCCN(CC(C)C)CC(C)C)CC2)cc1 (stereo unspecified),1.9%
Cc1ccsc1C(=O)OC(C)C(=O)NC1CCCCC1C (stereo unspecified),5.3%
COc1cccc(CN2C(=O)c3ccccc3Sc3ccc(C(=O)OCc4ccco4)cc32)c1,4.9%
O=C(O)C1(c2ccccc2)CCN(S(=O)(=O)c2cccc(Cl)c2)CC1,-4.6%
O=C1CCCC2=C1C(c1ccccn1)Nc1ccc(C(=O)c3ccccc3)cc1N2 (stereo unspecified),10.8%

# Shown as tab-separated lines: 7 of the compounds above
Molecule	VDR inhibitor
CCCc1ccc(C(C)NC(=S)NCc2ccc(F)cc2)cc1 (stereo unspecified)	-8.7%
COCCCn1c(SCC(=O)NC2CCCCC2)nnc1-c1ccco1	-3.0%
CCN(C(=O)CN1CCN(S(=O)(=O)c2cc(Cl)ccc2Cl)CC1)c1c(N)n(Cc2ccccc2)c(=O)[nH]c1=O	2.4%
Cc1nnc(SCC(=O)N2CCN(c3ccccc3)CC2)n1C1CC1	-14.0%
CCN(CC(=O)Nc1cccc(S(=O)(=O)N2CCCC2)c1)CC(=O)Nc1ccccc1OC	-7.9%
COc1ccc(Nc2nc(-c3cccs3)cs2)c(OC)c1	2.4%
Cc1ccc(/C=N/Nc2ccnc3cc(Cl)ccc23)c(C)c1	-12.3%

# High-throughput results as filed in PubChem BioAssay.
